# A488 fluor – A488 region autofluorescence | max dye equivalency, M | actives 0.1% (n = 59,000) | compound autofluorescence, A488 spectral region, dye equivalency; stronger effect = higher value; active = above 10 nM dye equivalent; inconclusive = 1 to 10 nM; inactive = 1 nM or less; about half of its hits are not listed in these tables;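 note: highest value over a series up to 38 µM; compound alone in buffer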
#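 Readout is A488 dye-equivalent concentration, calibrated by a per-plate six-point Alexa 488 series. Compounds in 100 mM Tris buffer pH 8.0 were incubated 15 min at room temperature. Plates were imaged using 480 nm excitation/540 nm emission filters.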
# TSHR agonist – agonists of human thyroid stimulating hormone receptor; Potency, µM (highest dose often 57.1 µM), without a hit: top-dose activation, hits mostly activators; AID 926; HEK293-CNG-TSHR cells (CNG channel as cAMP sensor), membrane potential dye, cAMP; actives 0.48% (n = 73,000); active = well fitted activation curve of enough size with the parental cells flat; inconclusive = any curve in the parental cells; inactive = parental cells flat and receptor cells flat or falling; note: potency is the fitted concentration of half-maximal effect; % of control where 0% means no effect; weak receptor curves with flat parental cells got no call and are not listed
# Target sequence (P16473 whole entry, looked up): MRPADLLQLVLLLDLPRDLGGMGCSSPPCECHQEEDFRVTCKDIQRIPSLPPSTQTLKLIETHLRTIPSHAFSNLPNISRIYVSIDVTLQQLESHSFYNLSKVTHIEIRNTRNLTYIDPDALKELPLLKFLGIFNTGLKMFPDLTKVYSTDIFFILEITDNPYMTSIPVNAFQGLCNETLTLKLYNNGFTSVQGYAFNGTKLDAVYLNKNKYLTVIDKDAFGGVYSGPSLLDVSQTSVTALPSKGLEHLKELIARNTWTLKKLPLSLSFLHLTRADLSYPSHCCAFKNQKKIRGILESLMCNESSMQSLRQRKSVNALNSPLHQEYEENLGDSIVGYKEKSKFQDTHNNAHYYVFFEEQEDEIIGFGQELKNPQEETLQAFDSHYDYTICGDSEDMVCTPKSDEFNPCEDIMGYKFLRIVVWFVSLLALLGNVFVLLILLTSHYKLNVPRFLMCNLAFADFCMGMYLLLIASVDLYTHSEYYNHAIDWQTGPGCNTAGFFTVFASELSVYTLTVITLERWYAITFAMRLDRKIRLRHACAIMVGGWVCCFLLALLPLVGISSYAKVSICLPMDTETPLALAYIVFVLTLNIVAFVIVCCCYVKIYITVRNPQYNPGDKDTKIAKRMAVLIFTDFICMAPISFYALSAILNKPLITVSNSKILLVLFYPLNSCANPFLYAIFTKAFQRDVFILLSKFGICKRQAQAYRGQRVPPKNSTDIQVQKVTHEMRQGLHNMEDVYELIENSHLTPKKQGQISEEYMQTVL
#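 HEK 293 cells stably expressing TSHR and a cAMP-gated CNG channel; parental CNG-only cells as counterscreen. Cells preloaded 60 min with membrane potential dye plus 100 uM RO 20-1724, then compound 30 min; fluorescence read at 590 nm.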
# AID923 – qHTS Assay for Allosteric/Competitive Inhibitors of Caspase-1: Spectroscopic Profiling in AFC Spectral Region; compound fluorescence, AFC spectral region (405/520 nm); almost no hit is shown here; Potency, µM (doses to about 57.5 µM), for inactives: at the top dose fluorescence increase, usual class: activators; actives 1.1% (n = 75,000); active = well fitted activation curve with a large enough effect; inconclusive = small, poorly fitted or top-dose-only effect;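 note: potency is the fitted concentration of half-maximal effect; 0% is about no effect; scaled to a free AFC standard on each plate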
#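 Compound autofluorescence profiled at 405 nm ex/520 nm em during kinetic caspase 1 run (50 nM enzyme, 5 uM Ac-WEHD-AFC, HEPES pH 7.5, 10 mM DTT). Titration up to 57 uM; baseline from regression intercept, normalized to AFC standard curve.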
# A647 autofl – compound fluoresces in the A647 spectral region | Compound fluorescence, A647 channel (570/671 nm), Tris buffer | max dye-equivalent concentration, M | 59,000 tested, under 10 active | AID 592; active means above 1 µM dye equivalent; inconclusive means 0.1 to 1 µM; inactive means 0.1 µM or less;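 note: values scaled relative to a standard on each plate; highest value over a series up to 38 µM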
#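 Compound fluorescence was measured in 100 mM Tris buffer, pH 8.0, after 15 min at room temperature, using 570 nm excitation and 671 nm emission filters. Signal was normalized to a per-plate Alexa 647 standard curve and expressed as dye-equivalent concentration at each compound concentration.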
# Resorufin autofl – compounds fluorescent in resorufin spectral region | Compound fluorescence, resorufin region 547/598 nm, buffer; stronger effect = higher value | actives 0.04% (n = 59,000) | max dye-equivalent concentration, M; active = above 10 nM dye equivalent; inconclusive = 1 to 10 nM; inactive = 1 nM or less; a few of its hits are not listed in these tables; note: highest value over a series up to 38 µM
#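 Compounds in 100 mM Tris buffer, pH 8.0, incubated 15 min at room temperature, then read with 547 nm excitation and 598 nm emission filters. Fluorescence was converted to dye-equivalent concentration using an on-plate six-point resorufin standard curve.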
# * hit, by the source's call; i = inactive; ? = inconclusive; . = not tested or not shown; [ ] = remark or other dose. These rows are one share of the data, so the mix of outcomes need not match the whole.
# Below each compound: A488 fluor	TSHR agonist	AID923	A647 autofl	Resorufin autofl
- Cc1nn(-c2ccccc2)c(Oc2ccc(F)cc2)c1/C=N/n1cnnc1
→ i	11.5%	-0.5%	8.4e-09	i
- c1nc(N2CCOCC2)c2sc3nc(N4CCOCC4)c4c(c3c2n1)CCCC4
→ i	12.8%	0.3%	7.2e-09	i
- Cc1cc(C)n(-c2ccc(C(=O)Oc3ccc4c(c3)OCO4)cc2)n1
→ i	?	-1.1%	5.7e-09	i
- COc1cc2c(=O)n(CCCN3CCOCC3)c(=S)[nH]c2c(OC)c1OC
→ i	5.7%	1.3%	1.7e-09	i
- COc1cc2c(cc1OC)C(C(=O)Nc1ccc3c(c1)OCCO3)C(c1cccnc1)N(C)C2=O (stereo not drawn)
→ i	1.6%	0.6%	2.89e-08	i
- COc1ccc(CC(=O)Nc2c3c(nn2-c2cccc(C)c2C)CS(=O)C3)cc1 (stereo not drawn)
→ i	?	1.1%	1.5e-08	i
- Cc1onc(-c2ccccc2Cl)c1C(=O)N1CCN(c2nc3ccccc3s2)CC1
→ i	.	.	1.85e-08	i
- CCOC(=O)N1CCN(Cc2cc(=O)oc3ccc(Cl)cc23)CC1
→ i	?	-0.2%	5.2e-09	i
- O=C1OCC(Cn2c3ccccc3c3ccccc32)O1 (stereo not drawn)
→ .	19.1%	1.7%	.	.
- COc1ccc2sc(NC(C)=O)nc2c1
→ i	-4.3%	-2.1%	2.1e-09	i
- O=C(CSc1cccc(C(F)(F)F)c1)NC(=O)NCc1ccco1
→ i	5.9%	-0.7%	1e-09	i
- COCCOc1nc2ccccc2nc1C
→ i	3.9%	-1.2%	9.2e-09	i
- O=C(O)c1ccc(CNC(=O)c2ccc(Br)o2)cc1
→ i	8.3%	0.2%	2.03e-08	i
- COc1ccc(C(=O)Cn2c(Br)nc3c2c(=O)n(C)c(=O)n3C)cc1
→ i	9.8%	0.1%	1.54e-08	i
- Cc1cc(=O)[nH]c(SCc2cc(Cl)ccc2OC(F)F)n1
→ i	?	-2.2%	2.44e-08	i
- Cn1c(N)c(C(=O)c2cc(-c3ccccn3)nc3ccccc23)c(=O)[nH]c1=O
→ i	1.5%	2.5%	1e-09	i
- c1ccn2c(SCc3ccc4c(c3)OCO4)nnc2c1
→ i	8.6%	-0.6%	1e-09	i
- CCNC(=O)c1nc[nH]c1C(=O)NCC
→ i	2.9%	0.0%	9.2e-09	i
- CC1CCCCN1S(=O)(=O)c1ccc(S(=O)(=O)N2CCN(c3ccc(F)cc3)CC2)cc1 (stereo not drawn)
→ i	10.7%	-1.1%	6.4e-09	i
- Cc1sc2ncnc(OCC(=O)N3CCN(S(=O)(=O)c4ccc(Cl)cc4)CC3)c2c1C
→ i	3.8%	1.3%	1e-09	i
- Cc1nc(=O)cc(-c2ccccc2)n1-c1ccccc1
→ i	?	0.1%	1.81e-08	i
- CCNCCCNCCCCNCCCNCC
→ .	3.5%	-2.2%	.	.
- C=Cc1ccc(C=C)cc1
→ .	4.1%	-0.1%	.	.
- CC(Sc1nnnn1C)C(=O)Nc1ccc(Oc2ccccc2)cc1 (stereo not drawn)
→ i	11.6%	1.5%	1e-09	i
- CCN(CC)P1(=O)OC(c2cc(OC)c(OC)c(OC)c2)=Nc2c1c(C)nn2-c1ccccc1 (stereo not drawn)
→ i	13.7%	-1.1%	1.01e-08	i
- Cn1c(=O)[nH]c(=O)c2c1nc(N1CCCCCC1)n2CC(=O)c1ccccc1
→ i	-8.1%	0.0%	1e-09	i
- CC/C=C\CC[C@H](O)C1=CCCCC1=O
→ .	-0.4%[11.4 µM]	1.8%[11.5 µM]	.	.
- O=C(CN(CCN1CCOCC1)C(=O)Cn1nnc(-c2ccc(F)cc2)n1)NC1CCCCC1
→ i	0.8%	0.1%	1e-09	i
- Cc1oc(-c2ccc(Cl)cc2)nc1CN1CCC(C(=O)N2CCN(c3ccccn3)CC2)CC1
→ .	-0.2%	0.7%	.	.
- CCOC(=O)c1[nH]c2ccc(OC)cc2c1NS(=O)(=O)c1ccc(OC)cc1OC
→ i	-6.3%	0.3%	1e-09	i
- O=C(Nc1ccccc1C(=O)NCc1ccco1)c1ccco1
→ i	12.7%	-0.7%	2.02e-08	i
- CSc1ccccc1NC(=O)CSc1nnnn1-c1ccccc1SC
→ i	28.7%	-1.7%	2.57e-08	i
- CCc1cccc(C)c1NC(=O)C1=C(C(=O)O)CCCC1
→ i	10.2%	-0.4%	5.2e-09	i
- O=S(=O)(c1ccc(F)cc1)N1CN(Cc2ccco2)c2nc3ccccc3nc21
→ i	?	16.7%	1.07e-08	i
- O=C(CSc1ncnc2ccccc12)Nc1ccc(N2CCOCC2)cc1
→ i	-0.7%	-1.1%	1.6e-09	i
- CCOC(=O)N1CCN(C(=O)CSc2nnc(-c3cccs3)o2)CC1
→ .	-0.7%	-2.0%	.	.
- Cc1ccc2nc3c(cc2c1)c(NC(=O)c1cccnc1)nn3C
→ i	-10.6%	0.1%	8.7e-09	i
- O=[N+]([O-])c1ccc(CSc2ncnc3c2ncn3[C@@H]2O[C@@H](CO)[C@@H](O)[C@H]2O)cc1
→ i	6.8%	1.2%	1e-09	i
- O=C(Cn1c(=O)n(-c2cccc(Cl)c2)c(=O)n1CC(=O)N1CCCCC1)N1CCCCC1
→ i	13.4%	-0.8%	9.6e-09	i
- COc1ccc(-c2nc(CN3CCC(C(=O)NC(C)C)CC3)c(C)o2)cc1OC
→ i	3.8%	-1.7%	6e-09	i
- Cc1cc(-c2ccccc2)nc(N2CCC(C(=O)NC(C)C)CC2)n1
→ i	5.8%	1.2%	1e-09	i
- O=C(O)c1cccc(S(=O)(=O)N2CCSCC2)c1
→ i	-2.5%	-1.8%	3.77e-08	i
- CC(C)n1nnnc1SCC(=O)N1CCOCC1
→ i	-2.3%	-0.3%	2.53e-08	i
- O=C(CN1CCOCC1)Nc1nc(-c2ccc3c(c2)CCN3S(=O)(=O)c2ccccc2)cs1
→ i	21.5%	0.9%	4.1e-08	i
- COc1ccc2c(c1)C1(Nc3ccccc3C(=O)N1c1ccccc1)C(=O)N2 (stereo not drawn)
→ .	-3.6%	1.5%	.	.

# Profiles, quoted from the list. Order of values: A488 fluor	TSHR agonist	AID923	A647 autofl	Resorufin autofl
# O=C(CSc1cccc(C(F)(F)F)c1)NC(=O)NCc1ccco1 is listed as i	5.9%	-0.7%	1e-09	i
# c1ccn2c(SCc3ccc4c(c3)OCO4)nnc2c1 is listed as i	8.6%	-0.6%	1e-09	i
# Cc1sc2ncnc(OCC(=O)N3CCN(S(=O)(=O)c4ccc(Cl)cc4)CC3)c2c1C is listed as i	3.8%	1.3%	1e-09	i
# Cc1cc(-c2ccccc2)nc(N2CCC(C(=O)NC(C)C)CC2)n1 is listed as i	5.8%	1.2%	1e-09	i

# (more compounds)
Compound	A488 fluor	TSHR agonist	AID923	A647 autofl	Resorufin autofl
O=C(O)CCCC(=O)Nc1ccn(-c2ccccc2)n1	i	.	.	1e-09	i
COc1ccccc1-n1c(SC)nc(O)cc1=O	.	?	0.2%	.	.
CCCCCCn1c(-c2ccco2)nc2oc3cc(OC)ccc3c(=O)c2c1=O	i	.	-0.4%	1e-09	i
c1ccc(Nc2nc(-c3ccc4c(c3)OCO4)nc3ccccc23)cc1	i	.	1.4%	2e-09	i
COc1cccc(-c2nnc(SCC(=O)OC(C)C)n2Cc2ccco2)c1	i	?	1.6%	3.7e-09	i
COC(=O)c1ccc(COC(=O)c2ccc(-n3cnnn3)cc2)o1	i	13.2%	0.0%	3.59e-08	i
O=C(CCNS(=O)(=O)c1cccc2nsnc12)N1CC(=O)N(CCc2ccccc2)C(=O)C1	i	18.4%	1.2%	4.14e-08	i
COc1ccc(C(c2nnnn2Cc2cccs2)N2CCN(c3ccccc3)CC2)cc1OC (stereo not drawn)	i	?	-3.5%	1.1e-08	i
CCN1CCN(C(=O)CN(c2ccc(C)cc2)S(C)(=O)=O)CC1	i	-3.1%	-1.4%	2.18e-08	i
C=CCOc1c(Br)cc(CNn2nnnc2N)cc1OC	i	-2.7%	-0.7%	2.65e-08	i
Cc1ccccc1NC(=O)c1cc(S(=O)(=O)N2CCOCC2)ccc1F	i	10.8%	-1.0%	3.6e-09	i
CS(=O)(=O)N(CC(=O)NCc1cccnc1)Cc1ccc(Cl)cc1	i	5.0%	-0.5%	1e-09	i
Cc1ccc(S(=O)(=O)NCCCC(=O)C=[N+]=[N-])cc1	i	-5.6%	-0.6%	1.6e-09	i
OCCNCCCCCOc1ccc(F)cc1	.	1.1%	-0.6%	.	.
CCCC(=O)c1c(NC)cc(C)oc1=O	.	-4.7%	3.3%	.	.
N#Cc1ccccc1-c1ccc2ncnc(N3CCNCC3)c2c1	i	5.1%	-1.1%	5.6e-09	i
O=C1c2sc3nc4c(c(=O)n3c2C(=O)N1c1ccccc1)CCC4	i	-6.2%	0.5%	4.4e-09	i
CC(C)(C)CC(C)(C)c1ccc(OCOCCOCCO)c(Cc2cc(C(C)(C)CC(C)(C)C)cc(Cc3cc(C(C)(C)CC(C)(C)C)ccc3OCOCCOCCO)c2OCOCCOCCO)c1	i	4.8%[25.6 µM]	-0.5%[25.7 µM]	6.5e-09	i
c1ccc(OCc2nn3c(-c4n[nH]c5c4CCC5)nnc3s2)cc1	i	?	0.5%	1e-09	i
c1ccc(Cn2nnnc2C(c2cccnc2)N2CCN(c3ccccc3)CC2)cc1 (stereo not drawn)	i	14.5%	-1.0%	4.51e-08	i
O=C(c1cc2c(=O)oc3ccccc3c2s1)N1CCN(c2ccccn2)CC1	i	11.3%	2.9%	2.9e-09	i
Cc1cc(C)nc(N2CCCC(C(=O)NCCc3ccccc3F)C2)n1 (stereo not drawn)	i	9.9%	0.0%	1e-09	i
COC(=O)c1cn(C(C)C(=O)NCc2ccco2)c2ccccc12 (stereo not drawn)	i	?	-0.9%	2e-08	i
COc1ccc(NC(=O)c2ccc(S(=O)(=O)N3CCOCC3)cc2)c(OC)c1	i	0.7%	3.1%	1e-09	i
COC(=O)c1cc(OC)c(OC)cc1NC(=O)c1c(C)noc1C	i	-3.0%	-2.1%	5.2e-09	i
Cc1ccc(OCCOCCn2ccnc2)c(Br)c1	.	4.3%	5.8%	.	.
CN(C)c1ccc(-c2nn3c(-c4cccnc4)nnc3s2)cc1	i	-4.7%	0.1%	2.01e-08	i
Cc1cc(C)c2nc(N3CCC(C(=O)N4CCN(c5ncccn5)CC4)CC3)sc2c1	i	27.4%	-0.2%	2.24e-08	i
CC(C)=CC/C=C1\CCC(C(=O)O)C(C(=O)O)C1 (stereo not drawn)	.	5.5%	1.2%	.	.
CCOCCSC1=C(C#N)C(c2cccs2)C(C(C)=O)=C(C)N1 (stereo not drawn)	i	26.0%	0.7%	5.6e-09	i
Cc1ccc(N2C(=O)CSC2c2cccs2)cc1 (stereo not drawn)	i	14.1%	-4.5%	3.2e-09	i

# Assay outcomes deposited in PubChem BioAssay by National Center for Advancing Translational Sciences (NCATS).
